Bioassay records deposited in PubChem by The Scripps Research Institute Molecular Screening Center.
FBW7 act: human FBW7 E3 ligase activation, primary screen; normalized activity (activation), % at 26.1 µM; AlphaScreen FBW7–phospho-cyclin E peptide binding, activator screen; Q969H0; 650,000 tested, 0.13% active; in the data active = normalized activity above about 1.9%;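 note: purified mutant Fbw7 with reduced substrate affinity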
MITF inh: inhibitors of human MITF; O75030; 650,000 tested, 0.91% active; inhibition, % at 2.6 µM; AlphaScreen MITF homodimerization, bead proximity signal; in the data active = inhibition above about 50%;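 note: 0% = vehicle wells with protein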
GPR151 activ: activates the human receptor GPR151 | activation, % at 11.2 µM | AID 1508602 | PathHunter beta-arrestin GPR151 cells, luminescence | Q8TDV0 | 650,000 tested, 1% active; in the data active = activation above about 4.9%;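 note: 0% = median of compound wells and 100% = cells with positive control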
* marks the source's active call; other numbers are inactive results; & = joins results of further samples.

entry	canonical_smiles	FBW7 act	MITF inh	GPR151 activ
1	CN(C)c1ccc(/C=N/N=C(\N)SC2CC(=O)N(c3ccc(C(=O)O)cc3)C2=O)cc1 (centres undefined)	0.0	-6	-0.4
2	Cc1ccc(-c2c(C)nn3c(NCCN(C)C)cc(C)nc23)cc1	-0.1	-6	-0.5
3	CC[C@H]1CN2CCc3cc(OC)c(OC)cc3[C@@H]2C[C@@H]1C[C@H]1NCCc2cc(OC)c(OC)cc21	0.5&0.6	6&1	-2.7&-0.3
4	CCC(CO)Nc1ccc2ncc(-c3ccc4[nH]ccc4c3)n2n1 (centres undefined)	-0.1	-2	-0.9
5	O=C1NC(=S)S/C1=C\c1cccnc1	0.1	9	-0.1
6	NC1=NC(=O)/C(=C/c2cccc([N+](=O)[O-])c2)S1	0.6	15	-0.7
7	COc1ccccc1-n1c(=O)[nH]c2c(C(N)=O)nc(-c3ccncc3)nc21	0.1	9	-1.3
8	COc1cccc(-n2cnc([N+](=O)[O-])c2)c1	0.1	5	0.7
9	O=C(Nc1ccccc1)c1c(NC(=O)C(F)(F)F)sc2c1CCCCC2	-0.2	13	-0.6
10	CCC(CO)Nc1ccc2ncc(-c3ccsc3)n2n1 (centres undefined)	0.2	-9	1.7
11	COc1ccc(/C=C/c2cc(=O)c3ccccc3o2)cc1	0.4	1	-3.3
12	CC(=O)Oc1ccc(/C=C/c2ccc3cccc(OC(C)=O)c3n2)cc1	0.1	5	-7.1
13	COc1cccc(/C=N/NC(N)=S)c1O	-1.5	19	-1.3
14	Clc1ccc(CSc2ncn[nH]2)c(Cl)c1	0.0	-5	0.4
15	O=C1c2ccccc2C(=O)N1CC(=O)N1CCCc2ccccc21	0.1	-8	0.4

Quoted from the listing.
MITF inh with compound 11 : 1
FBW7 act with compound 8 : 0.1

(further entries)
entry	canonical_smiles	FBW7 act	MITF inh	GPR151 activ
16	NS(=O)(=O)c1ccc(NC(=O)CN2CCN(C(=O)c3ccccc3)CC2)cc1	0.0	-12	0.9
17	Nc1nonc1-c1nc2ccccc2n1CC(=O)Nc1ccc(F)c(F)c1	0.0	0	0.4
18	COc1cc(C2C(C#N)=C(N)Oc3cc4c(cc32)OCO4)cc(Br)c1OC (centres undefined)	-0.1	1	0.9
19	Cc1ccccc1/C=C1/SC(=S)NC1=O	-0.1	20	-1.5
20	COc1ccccc1-n1c(=O)[nH]c2c(C(N)=O)nc(-c3ccc(F)cc3)nc21	0.1	-1	-0.2
21	COc1ccccc1-n1c(=O)[nH]c2c(C(N)=O)nc(-c3ccccc3)nc21	-0.3	-5	-1.8
22	COc1ccc(C(=O)/C=C/c2cc(OC)c(OC)c(OC)c2)cc1	0.1	2	2.7
23	O=C1NC(=S)S/C1=C\c1ccccn1	0.0	23	-0.4
24	O=C(Nc1sc2c(c1C(=O)Nc1ccccn1)CCCCC2)c1ccccc1F	0.0	-3	1.9
25	O=C1NC(=O)/C(=C\c2ccc(OCc3ccc(Cl)cc3Cl)cc2)N1	0.1	-2	2.1

Structures listed so far with a Cl atom (2):
entry	canonical_smiles	FBW7 act	MITF inh	GPR151 activ
14	Clc1ccc(CSc2ncn[nH]2)c(Cl)c1	0.0	-5	0.4
25	O=C1NC(=O)/C(=C\c2ccc(OCc3ccc(Cl)cc3Cl)cc2)N1	0.1	-2	2.1

Copied from above, compounds 16–22
entry	canonical_smiles	FBW7 act	MITF inh	GPR151 activ
16	NS(=O)(=O)c1ccc(NC(=O)CN2CCN(C(=O)c3ccccc3)CC2)cc1	0.0	-12	0.9
17	Nc1nonc1-c1nc2ccccc2n1CC(=O)Nc1ccc(F)c(F)c1	0.0	0	0.4
18	COc1cc(C2C(C#N)=C(N)Oc3cc4c(cc32)OCO4)cc(Br)c1OC (centres undefined)	-0.1	1	0.9
19	Cc1ccccc1/C=C1/SC(=S)NC1=O	-0.1	20	-1.5
20	COc1ccccc1-n1c(=O)[nH]c2c(C(N)=O)nc(-c3ccc(F)cc3)nc21	0.1	-1	-0.2
21	COc1ccccc1-n1c(=O)[nH]c2c(C(N)=O)nc(-c3ccccc3)nc21	-0.3	-5	-1.8
22	COc1ccc(C(=O)/C=C/c2cc(OC)c(OC)c(OC)c2)cc1	0.1	2	2.7

The list is partial; rates above refer to the full screens.
